TsaE inh = YjeE (TsaE) inhibition, E. coli. purified YjeE, fluorescence polarisation of a bound ADP probe. Potency, µM. hit rate 0.05% among 71,000; active = well fitted falling curve; inconclusive = weaker or top-dose-only fall, or a rising curve; inactive = flat or poorly fitted curve;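 also: top concentration of the series not given in the record; excess ADP was the control for the full effect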
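Fluorescence polarization of a BODIPY Texas Red–ADP probe (2 uM) bound to purified YjeE (10 uM) was read after 15 min room-temperature incubation with compounds. Loss of polarization marks inhibitors; ADP serves as titrated control.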
Bst PK mod = alters activity of Bacillus stearothermophilus pyruvate kinase; partly purified Bacillus stearothermophilus pyruvate kinase, luminescence ATP production; ribose 5-phosphate activator present at AC10; AID 361; Potency, µM; hit rate 1.2% among 51,000; in the data active means potency below about 11 µM; inconclusive means mostly about 12 µM to 25 µM; inactive means weaker than that;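 the screen sought inhibitors and activators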;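 also: potency is read from the fitted curve at half-maximal effect; scaled between full activation by ribose 5 phosphate and full inhibition by luteolin; about four in five hits inhibit and the cells do not say which; series up to 57 µM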
* = called active by the depositor; i = inactive; ? = inconclusive; . = not tested or not shown. The list is partial (hit frequency here may not be typical).

SMILES | TsaE inh | Bst PK mod
Cc1nc(SCC(=O)NCC2CCCO2)c2oc3ccccc3c2n1 (centres undefined) | i | >11
O=C(Nn1cnnc1)c1cc2cc(Br)ccc2oc1=O | i | >57
COc1ccc2c(c1)CCc1c(C(=O)NCCCn3ccnc3)noc1-2 | i | .
O=C(O)/C=C\C(=O)O | i | .
COc1cc(CN2CCN(S(=O)(=O)c3ccc(F)cc3)CC2)cc(OC)c1OC | i | >57
Nc1c2c(nc3ccn(Cc4ccccc4)c(=O)c13)CCC2 | i | >57
O=C(COC(=O)CCCc1c[nH]c2ccccc12)Nc1ccc2c(c1)OCO2 | i | >57
CCOc1cc(NC(=O)c2ccco2)c(OCC)cc1NC(=O)Cc1cccc(OC)c1 | i | >57
N#Cc1c2c(c(-c3ccco3)[nH]c1=O)CCCC2 | . | >26
Nc1nc2nccc(-c3ccc(Cl)cc3)n2n1 | i | 6*
C=C(C)CSc1nnc2n(C)c(=O)c3c4c(sc3n12)CCC4 | . | >26
CCN1CCCC1Cn1c(-c2ccccc2)nc2c(NC3CCCCC3)nc(C)nc21 (centres undefined) | i | .
C/C(CC1(O)C(=O)N(C)c2ccccc21)=N\O (centres undefined) | i | >57
CCCCNC(=O)OCCNC(=O)NC | i | >57
N#CC1=C(SCC(=O)NC2CC2)NC(=O)C(C#N)C12CCCCC2 (centres undefined) | i | >57
O=C(Nc1ccc(Br)cc1F)C1CCN(c2nnc(-n3cccc3)s2)CC1 | i | .
CCC(NS(=O)(=O)c1ccc(C)cc1)C(=O)Nc1ccc(NC(C)=O)cc1 (centres undefined) | i | >57
COc1cc2nc(N3CCN(C(=O)[C@H]4CCCO4)CC3)nc(N)c2cc1OC | i | .
CCOc1ccc(-n2cc(C(=O)N3CCCCCC3)c3cc(OC)c(OC)cc3c2=O)cc1 | i | >57
COc1ccc(CNC(=O)C2CC(=O)N(c3ccc(OCC(=O)N4C(C)CCCC4C)cc3)C2)cc1 (centres undefined) | i | >57
COCCn1c(=O)c(C)nc2cncnc21 | i | .
O=C(c1cccc(F)c1)N1CCC2(CC1)CCN(c1ccccc1)CC2 | i | .
COc1cccc(C2C(C#N)=C(N)OC3=C2C(=O)CC(c2ccco2)C3)c1OCc1ccc(F)cc1 (centres undefined) | i | >57
Cc1ccc(N2CCn3c2nc2c3c(=O)n(CCc3ccccc3)c(=O)n2C)cc1 | i | >57
CCOC(=O)c1nnn(-c2nonc2-c2ccccc2)c1C | i | >57
The list goes on:
SMILES | TsaE inh | Bst PK mod
COc1ccc(C(=O)Cn2nnc(-c3ccc(N4CCOCC4)cc3)n2)cc1OC | i | >57
COc1cc(SC)ccc1C(=O)NC1CCCCC1 | i | .
Cc1cc(C)n2c(Br)c(CSc3nc4ccccc4o3)nc2n1 | i | >57
N#CC1=C(N)OC2=C(CCC/C2=C/c2ccoc2)C1c1ccoc1 (centres undefined) | i | >57
CCC(C)NC(=O)CSc1nc2ccc(N3CCOCC3)cc2c(=O)n1CCc1ccccc1 (centres undefined) | i | >57
CCCn1c(SCC(=O)N2CCc3ccccc32)nnc1-c1ccncc1 | i | >57
COc1ccc(NC(=O)CSC2CCCCC2)cc1 | i | >57
Cc1cnc(C(=O)Nc2nnc(C)s2)cn1 | i | >57
CC(NS(=O)(=O)c1ccccc1)C(c1cccs1)N1CCN(C)CC1 (centres undefined) | i | >57
CS(=O)(=O)N(CC(=O)NCC1CCCO1)c1ccc(Cl)c(Cl)c1 (centres undefined) | i | .
CC(C)CCSc1nc2c(c(=O)[nH]c(=O)n2C)n1CCCc1ccccc1 | i | .
CN(C)c1cccc(C(=O)NCC2CCCO2)c1 (centres undefined) | i | .
CCn1cc(C(=O)NC2CCCCC2C)c(=O)c2ccc(C)nc21 (centres undefined) | i | >57
COC(=O)CSc1nnc(SCc2ccc(OC)cc2)s1 | i | >57
CCOC(=O)C1=C(N)Oc2cc(O)ccc2C1c1cccnc1 (centres undefined) | i | >57
O=C(CN1CCOCC1)NCc1ccccc1 | i | >57
Cn1c(=O)c2c(nc(CN3CCN(c4ccccc4)CC3)n2Cc2ccccc2F)n(C)c1=O | i | >57
Cc1cccc(N2CCN(CC(=O)NCC3CCCCC3)CC2)c1C | i | >57
CCCN(CCC)c1ncnc2c1cnn2-c1ccc(OC)cc1 | i | ?
CCOC(=O)Cc1csc(NC(=O)CSc2ncnc3c2cnn3-c2ccc(OC)cc2)n1 | i | >57
O=C(CSc1nnc(-c2ccccc2)o1)NC1CCCCC1 | i | >57
Cc1ccccc1Cn1c(=O)c2c(nc3n2CCN3Cc2ccco2)n(C)c1=O | i | >57
O=C(Nc1cccc(F)c1)N1CC[C@@]2(CCCN(C(=O)c3cccc(F)c3)C2)C1 | i | .
COc1cc(CNC(=O)CCCC/C=C/C(C)C)ccc1O | i | .
CC(NC(=O)Nc1ccccc1O)(C(F)(F)F)C(F)(F)F | i | >57
Further structures:
SMILES | TsaE inh | Bst PK mod
CCOC(=O)C1CCCN(C(=O)c2ccc(CS(=O)(=O)c3ccc(Br)cc3)o2)C1 (centres undefined) | i | .
CCCC(=O)N(Cc1cc2cccc(C)c2[nH]c1=O)c1ccccc1OC | i | >57
CC(NC(=O)c1cccnc1)C(c1cccs1)N1CCOCC1 (centres undefined) | i | >57
CN(C)S(=O)(=O)c1ccc2c(c1)/C(=C/c1cc3c([nH]1)CCCC3)C(=O)N2 | i | .
Cc1cc(=O)n2[nH]c(-c3ccc(Cl)cc3)cc2n1 | i | ?
CC(N)=O | i | .
CC(=O)Nc1cccc(OCC(=O)NS(=O)(=O)c2ccc(Cl)cc2)c1 | i | >57
O=C(CSc1nnc2scc(-c3ccc(Cl)cc3)n12)NCc1ccc2c(c1)OCO2 | i | >57
COC(=O)c1ccc(Oc2nc(NC(C)C)nc(SC)n2)cc1 | i | >57
O=C(c1cc(C(F)(F)F)cc(C(F)(F)F)c1)N1CCC2(CC1)CN(Cc1ccncc1)C2 | i | .
N#CCSc1nnc(COc2ccc3ccccc3c2)o1 | i | >57
C/C(=N\S(=O)(=O)c1ccc(C)cc1)N1CCN(S(=O)(=O)c2ccccc2)C1 | i | >57
CNC(=O)CN1C(=O)CSc2nc(C)cc(C)c21 | i | .
COc1ccc(CC(=O)Nc2c3c(nn2-c2cccc(C)c2C)CS(=O)C3)cc1OC (centres undefined) | i | >57
COc1ccc(-c2nnc3ccc(SCC(=O)NCc4ccco4)nn23)cc1 | i | >57
O=C(c1c(F)cccc1F)N1CCN(c2cccc(C(F)(F)F)c2)CC1 | i | .
COCC(C)OC(=O)C(C#N)c1nc2ccccc2nc1N1CCN(Cc2ccccc2)CC1 (centres undefined) | i | >57
O=C1NCC2=C1C(c1ccc(Br)cc1)Nc1ccccc1N2 (centres undefined) | i | .
COc1ccc(-c2nnc(CSc3nc4ccccc4c(=O)n3CC3CCCO3)o2)cc1OC (centres undefined) | i | >57
Cc1c(NC(=O)CSc2nnc(-c3cccc(Cl)c3)o2)c(=O)n(-c2ccccc2)n1C | i | >57
CCOC(=O)Cc1c(C)c2ccc(N(CC)CC)cc2oc1=O | i | .
COC(=O)[C@@]1(Cc2ccc(OC)cc2)[C@H]2c3cc(C(=O)N4CCCC4)n(Cc4cc(F)c(F)c(F)c4)c3C[C@H]2CN1C(=O)c1ccccc1 | i | .
CCCCCCOC(=O)Sc1nc2ccccc2o1 | i | .
N=c1sccn1CC(=O)Nc1ccc(S(=O)(=O)N2CCOCC2)cc1 | i | >57
CCCNC(=O)CN(c1ccc(F)c(Cl)c1)S(C)(=O)=O | i | >57
(continued)
SMILES | TsaE inh | Bst PK mod
N[C@@H](Cn1ccc(=O)n(Cc2ccccc2C(=O)O)c1=O)C(=O)O | i | .
COC(=O)[C@@]1(Cc2ccccc2)[C@H]2c3cc(C(=O)N4CCCC4)n(Cc4ccc(C)o4)c3C[C@H]2CN1C(=O)c1ccccc1 | i | .
O=C(C1=C(O)C(=O)N(c2ncccn2)C1c1cccc(Cl)c1)c1ccco1 (centres undefined) | . | >26
O=C(CCn1c(SCC(=O)NCc2ccco2)nc2ccccc2c1=O)NCCc1ccccc1 | i | >57
O=C(NCc1nnc2n1CCCCC2)c1ccc(Cl)cc1Cl | i | >57
O=C(CCC(=O)N1CCN(S(=O)(=O)c2ccccc2)CC1)NC1CCCc2ccccc21 (centres undefined) | i | >57
Cc1c2cn[nH]c(=O)c2c(C)n1Cc1ccc(F)cc1 | i | .
COc1ccc(S(=O)(=O)Cc2ccc(C(=O)N3CCN(Cc4ccccc4)CC3)o2)cc1 | i | .
O=C(O)CCSc1nnc(-c2ccccc2)n1-c1ccccc1 | i | .
COC(=O)/C=C(\C)NC(=O)c1cccs1 | i | .
Cc1oc2nc(SCC(=O)NCc3cccnc3)nc(N)c2c1C | i | >57
CSc1nc(NC(C)(C)C)nc(Oc2ccc(=O)[nH]n2)n1 | i | >57
COc1ccc2ccccc2c1/C=N/O | i | >57
CCOc1c(C)cc(-c2ncccc2O)cc1C | i | >57
CCC(=O)c1ccccc1OCCCn1cncn1 | i | >57
CN(C)C(=O)NC1CCCCCCCCCCC1 | i | .
COc1ccccc1NC(=O)CSc1nc(O)cc(=O)n1-c1ccccc1OC | i | .
CCCCN1CCCC[C@H]1C(=O)Nc1c(C)cccc1C | i | .
Cc1nc2c(o1)CCc1ccccc1C2O (centres undefined) | . | >26
Cc1cccc(NC(=O)c2cnc3sccn3c2=O)c1C | i | .
CCN(CC)c1ccc(-n2c(C)c(C(C)=O)c(C(C)=O)c2C)cc1 | i | >57
Cc1ccccc1N1CCN(S(=O)(=O)C[C@@]23CC[C@H](C[C@H]2NC(=O)[C@@H](N)CCS(C)(=O)=O)C3(C)C)CC1 | i | .
CCOc1ccc(Cl)cc1CSc1n[nH]c(CC)n1 | i | >57
COc1ccc2[nH]cc(CCNc3cc(-c4ccccc4OC)ncn3)c2c1 | i | .
O=C(Cn1cc2c(n1)CCCC2)NCCCN1CCN(Cc2ccccc2)CC1 | i | .
Other compounds follow.
SMILES | TsaE inh | Bst PK mod
CCOC(=O)CCc1n[nH]c(=O)[nH]c1=O | i | .
CCCN(C/C=C\I)[C@@H]1CCc2cccc(O)c2C1 | i | .
CC1(C)C(c2ccccc2)=[N+]([O-])CN1O | i | .
C#CCNc1cc(C)nc2ncnn12 | i | >57
O=C1CNC(=O)/C1=C\N1CCN(C(c2ccccc2)c2ccccc2)CC1 | i | .
CC1(C)OC(=O)C(=CNc2ccccc2F)C(=O)O1 | i | .
O=C(CN1CCOCC1)Nc1scc(-c2ccccc2)c1C(=O)N1CCOCC1 | i | >57
C/C(C[n+]1ccccc1)=N\N=C(N)N | i | .
CC(=O)Nc1c(C(=O)NCc2ccccc2)nnn1Cc1ccccc1 | i | >57
Cc1c(C(=O)OC2CCC(C)CC2)[nH]c2c1C(=O)CCC2 (centres undefined) | i | .
Cc1nc(NCc2ccco2)[nH]c(=O)c1CCC(C)C | i | >57
CCOC(=O)c1c(C)[nH]c(C(=O)OCC(=O)Nc2cc(C)ccc2OC)c1C | i | >57
CCOc1ccccc1NS(=O)(=O)c1ccc(Br)s1 | i | >57
Cn1c(C(=O)O)c(CC(=O)Nc2ccccc2F)c2ccccc21 | i | i
CCc1nccn1S(=O)(=O)c1ccc(C)c(C)c1 | i | >57
COc1ccc2c(C)nc(Nc3nc(C)cc(C)n3)nc2c1 | . | >26
O=C(c1ccco1)N1CCN(C(=O)c2ccccc2Oc2ccccc2)CC1 | i | >57
CS(=O)(=O)N(CCc1ccccc1)CC(=O)NCc1cccnc1 | i | >57
CCOC(=O)c1cc(OC(=O)c2cccs2)n(-c2ccccc2)n1 | i | >57
CCOC(=O)c1ccccc1NC(=O)CC1Nc2ccccc2NC1=O (centres undefined) | i | .
CCN(CC)C(=O)CSc1nc2ccc(NC(=O)CSc3nccn3C)cc2s1 | i | >57
CC(=O)c1ccc(N2CCN(C(=O)C3CCC3)CC2)cc1 | i | >57
CN(C)CCCN=c1c2ccccc2n(C)c2[nH]c(=O)n(C)c(=O)c12 | i | .
Cc1ccc(N2C(=O)C3C4C=CC(C4)C3C2=O)cc1C (centres undefined) | i | >57
COc1ccccc1C1/C(=C(\O)c2ccc3c(c2)OCCO3)C(=O)C(=O)N1CCCN(C)C (centres undefined) | . | >26
COc1cc(C(=O)NCc2nnc(SCC(=O)Nc3cc(C)cc(C)c3)o2)cc(OC)c1OC | i | >57
Cc1cc(O)cc(O)c1C(=O)Cc1cscn1 | i | >57

15 compounds out of the list, sorted by length of the SMILES, low to high.
SMILES | TsaE inh | Bst PK mod
Cc1cnc(C(=O)Nc2nnc(C)s2)cn1 | i | >57
CN(C)c1cccc(C(=O)NCC2CCCO2)c1 (centres undefined) | i | .
CCOC(=O)CCc1n[nH]c(=O)[nH]c1=O | i | .
CNC(=O)CN1C(=O)CSc2nc(C)cc(C)c21 | i | .
CCCN(C/C=C\I)[C@@H]1CCc2cccc(O)c2C1 | i | .
Cc1cc(=O)n2[nH]c(-c3ccc(Cl)cc3)cc2n1 | i | ?
Cc1c(C(=O)OC2CCC(C)CC2)[nH]c2c1C(=O)CCC2 (centres undefined) | i | .
CCOC(=O)c1cc(OC(=O)c2cccs2)n(-c2ccccc2)n1 | i | >57
N#CC1=C(N)OC2=C(CCC/C2=C/c2ccoc2)C1c1ccoc1 (centres undefined) | i | >57
CCN(CC)C(=O)CSc1nc2ccc(NC(=O)CSc3nccn3C)cc2s1 | i | >57
CC(=O)Nc1cccc(OCC(=O)NS(=O)(=O)c2ccc(Cl)cc2)c1 | i | >57
COc1cc(CN2CCN(S(=O)(=O)c3ccc(F)cc3)CC2)cc(OC)c1OC | i | >57
CCOC(=O)c1c(C)[nH]c(C(=O)OCC(=O)Nc2cc(C)ccc2OC)c1C | i | >57
O=C(Nc1cccc(F)c1)N1CC[C@@]2(CCCN(C(=O)c3cccc(F)c3)C2)C1 | i | .
CN(C)S(=O)(=O)c1ccc2c(c1)/C(=C/c1cc3c([nH]1)CCCC3)C(=O)N2 | i | .
